HIV TAR-Tat – HIV-1 TAR-Tat binding disruption; AID 1259389; z-score (concentration not given with the values); hit rate 0.6% among 100,000; HIV-1 TAR RNA, Tat peptide displacement FRET; hits give high values;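 also: score is relative to mean and SD of negative controls; some compounds called inactive have numbers as strong as hits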
CDC25B-CDK2 inh – human CDC25B-CDK2/CyclinA binding inhibition; HTRF CDC25B-CDK2/CyclinA binding, anti-His/anti-Flag; hits give high values; hit rate 0.72% among 94,000; z-score (test concentration not listed);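 also: score is relative to mean and SD of negative controls; strong numbers were not always called active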
* = called active by the depositor; · = no result given.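 The calls were made as follows: active = z-score from 3 up in half or more of its runs; inactive = the rest.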

SMILES	HIV TAR-Tat	CDC25B-CDK2 inh
CC(C)N(CCS(=O)(=O)N1CCNCC1)S(=O)(=O)c1ccc(C2CCCCC2)cc1	2.49	·
CCCc1nc(C)cc(N2CCOCC2)n1	-0.39	-1.62
O=C(O)CS(=O)(=O)c1ccccc1[N+](=O)[O-]	·	-2.1
O=C(CSc1ncn[nH]1)Nc1ccc(C(=O)NC2CC2)cc1	0.96	-0.54
Cc1nc(C)c(C(=O)O)cc1C(=O)O	1.74	·
CCOC(=O)C1CCN(CC2=NS(=O)(=O)c3ccccc3N2)CC1	2.61	-2.07
COc1ccc(C(Cl)=C(c2ccc(OC)cc2)c2ccc(OC)cc2)cc1	0.24	·
Cc1nn(-c2nc3ccccc3[nH]2)c2c1C(c1cc(Br)ccc1F)CC(=O)N2 (configuration not stated)	1.58	·
NNC(=O)c1cc2ccccc2s1	·	0.45
CCOC(=O)CNC(=O)NCc1c(C)nn(CC)c1C	0.48	·
CCOC(=O)c1sc(NC(=O)c2noc(C)c2[N+](=O)[O-])c(C(=O)OCC)c1C	·	-2.22
O=S(=O)(c1ccc(F)cc1)N(Cc1cc(CN2CCOCC2)cs1)c1ccc(F)cc1	-1.39	·
Cc1nn2c(=O)cc(COc3ccccc3C)nc2s1	0.56	-1.46
Cc1cccn2cc(-c3cccc(S(=O)(=O)N4CCCCC4)c3)nc12	-0.55	-0.32
Clc1ccccc1-c1nnc2sc(/C=C/c3ccccc3)nn12	-0.03	-0.82
Cc1cc2c(cc1S(=O)(=O)N1CCN(c3ccc(Cl)cc3)CC1)OCCN2C	0.57	·
CCN1CCN(CCCNC(=O)C2CCN(C(=O)c3cc4sccc4n3CC)CC2)CC1	0.21	-0.54
CC(C)NC(=O)NC1(C(F)(F)F)Oc2ccc(Cl)cc2O1 (configuration not stated)	·	-0.21
CN(CCc1ccccn1)c1ncnc2c1cnn2-c1ccc(Cl)cc1	2.17	·
CCCn1nnc(NCc2ccc(Br)cc2)n1	1.59	·

A draw from above in order of molar mass, highest first:
SMILES	HIV TAR-Tat	CDC25B-CDK2 inh
O=S(=O)(c1ccc(F)cc1)N(Cc1cc(CN2CCOCC2)cs1)c1ccc(F)cc1	-1.39	·
CCN1CCN(CCCNC(=O)C2CCN(C(=O)c3cc4sccc4n3CC)CC2)CC1	0.21	-0.54
CC(C)N(CCS(=O)(=O)N1CCNCC1)S(=O)(=O)c1ccc(C2CCCCC2)cc1	2.49	·
Cc1cc2c(cc1S(=O)(=O)N1CCN(c3ccc(Cl)cc3)CC1)OCCN2C	0.57	·
COc1ccc(C(Cl)=C(c2ccc(OC)cc2)c2ccc(OC)cc2)cc1	0.24	·
Cc1cccn2cc(-c3cccc(S(=O)(=O)N4CCCCC4)c3)nc12	-0.55	-0.32
CCOC(=O)C1CCN(CC2=NS(=O)(=O)c3ccccc3N2)CC1	2.61	-2.07
CC(C)NC(=O)NC1(C(F)(F)F)Oc2ccc(Cl)cc2O1 (configuration not stated)	·	-0.21
O=C(CSc1ncn[nH]1)Nc1ccc(C(=O)NC2CC2)cc1	0.96	-0.54
Cc1nn2c(=O)cc(COc3ccccc3C)nc2s1	0.56	-1.46
CCOC(=O)CNC(=O)NCc1c(C)nn(CC)c1C	0.48	·
O=C(O)CS(=O)(=O)c1ccccc1[N+](=O)[O-]	·	-2.1
CCCc1nc(C)cc(N2CCOCC2)n1	-0.39	-1.62
Cc1nc(C)c(C(=O)O)cc1C(=O)O	1.74	·

(listing goes on)
SMILES	HIV TAR-Tat	CDC25B-CDK2 inh
Clc1ccc(-c2noc(Cc3ccccc3)n2)cc1	-0.76	0.7
Cc1nc(Nc2nc3ccccc3s2)[nH]c(=O)c1Cc1ccccc1	-1.62	0.17
CCCCNC(=O)C(CC)Sc1nc2ncccc2o1 (configuration not stated)	0.25	·
Nc1nc(-c2ccc(Cl)cc2)nn1C(=O)c1ccc(Cl)cc1	0.08	-0.85
CSc1ccc(C(=O)NC(=O)Nc2cccc(C(F)(F)F)c2)s1	·	-2.89
O=C(NCc1ccc(Cl)cc1)c1cc(-c2cccnc2)nc2ccc(Cl)cc12	0.85	·
CCNC(=O)c1c(NC(=O)c2nn(-c3ccc(Cl)cc3)ccc2=O)sc2c1CCCC2	1.03	-1.16
Cn1c(SCC(=O)c2ccc3c(c2)OCCCO3)nnc1-c1ccc2ccccc2c1	·	-1.21
O=C(CSc1nc2c(c(=O)n1-c1ccc(F)cc1)SCC2)N1CCCc2ccccc21	·	-1.31
CC1(C)Cc2nc3oc4c(=O)n(CC(=O)NCc5ccco5)cnc4c3cc2CO1	-1.1	·
O=C1CC(c2cccc3ccccc23)c2cnn(-c3nc4ccccc4s3)c2N1 (configuration not stated)	2.68	·
CC(C)CCN[C@H]1CS(=O)(=O)C[C@@H]1S(=O)(=O)c1ccc(Cl)cc1	-0.28	-1.82
Cc1[nH]c(=O)[nH]c(=O)c1S(=O)(=O)Nc1cccc(Br)c1	0.79	·
O=C(CSc1ncnc2ccccc12)Nc1ccc2c(c1)OCO2	·	-2.23
Cc1cc(CNC(=O)NCc2ccco2)c(C)n1-c1cccc(Cl)c1	-1.66	·
Cn1nc(C(=O)Nc2ccc(F)cc2F)c2c1-c1ccccc1OC2	1.81	-0.99
O=C1NC(=S)NC(=O)C1=Cc1c(O)[nH]c(=S)[nH]c1=O	·	-0.89
CN(C)CCCNc1ncnc2ccc(Br)cc12	·	-0.98
O=C1CC(NCc2ccco2)C(=O)N1c1ccccc1 (configuration not stated)	·	-0.69
Cc1cccc(NS(=O)(=O)c2ccc(/C=C/c3onc(C)c3[N+](=O)[O-])cc2)c1	0.74	·
Cc1[nH]nc2c1C1(C(=O)Nc3ccccc31)C(C#N)=C(N)O2 (configuration not stated)	·	-0.86
Cc1cc(F)ccc1NS(=O)(=O)c1ccc(CN2C(=O)c3cccnc3C2=O)s1	0.36	·
COc1ccc(NS(=O)(=O)c2ccc3c(c2)NC(=O)CC(C)S3)c(OC)c1 (configuration not stated)	-0.15	·
COc1cccc(NC(=S)NNC(=S)NC2CC3CCC2C3)c1 (configuration not stated)	·	0.55
c1ccc(OCc2nn3c(Cn4nnc5ccccc54)nnc3s2)cc1	3.15	-1.5
CC(=O)c1cc([N+](=O)[O-])c(NC2CCCCC2)s1	·	-1.39
Cc1c(C(=O)NC(C)C)oc2ccc3c(c12)C(=O)CC(C)(c1ccc(Cl)cc1)O3 (configuration not stated)	1.49	-1.46
Cc1csc2nc(CSc3nc4ccc(NC(=O)c5ccco5)cc4s3)cc(=O)n12	1.07	·
CCOCc1cc(CN2CCOCC2)c(O)c2ncccc12	2.24	-2.34
Cc1cc(NC(C)c2ccccc2)n2ncc(-c3ccc(F)cc3)c2n1 (configuration not stated)	0.49	0.6
Clc1ncnc2c1oc1ccc(Br)cc12	·	0.4
N#Cc1sc(=S)n(-c2ccccc2)c1N	-1.12	0.5
CCCN(C(=O)c1sc2nc3n(c(=O)c2c1C)CCCC3)c1ccc(F)cc1	0.85	·
CCN1CCCC1CNC(=O)Cn1ncn2nc(-c3ccco3)cc2c1=O (configuration not stated)	-1.27	-0.42
CCC(CC)C(=O)Nc1ccc(-n2cnnn2)cc1	2.18	-0.11
COCCNC(=O)C1CCN(c2nnc(-n3c(C)ccc3C)s2)CC1	0.63	0.12
CCOC(=O)N1CCC2(CC1)OC(=O)C(C)=C2C(=O)NCC1CCCO1 (configuration not stated)	1.16	·
CCOC(=O)c1c(C)oc2ccc(OC(C)=O)cc12	1.16	0.93
CCN(CC)C(=O)NC1=C(C#N)C(CC)(CC)Cc2ccccc21	0.1	1.72
COc1cc(-c2nc3nc[nH]n3c2Nc2c(C)cccc2C)ccc1O	-0.03	-1.46
c1ccc2c(c1)nc(Nc1ccc3c(c1)OCO3)c1nnnn12	-1.03	1.14
Cc1cc(Oc2nc3c(c(=O)n(Cc4ccccc4)c(=O)n3C)n2C)ccc1Cl	·	-1.62
CC(C)CCN1C(=O)c2ccc(-c3ccco3)n2CC1(C)C(=O)NC1CCCC(C)C1C (configuration not stated)	-1.55	·
CCC1CCCCN1C(=O)CSc1nc2ccccc2c(=O)n1CC1COc2ccccc2O1 (configuration not stated)	0.38	·
COc1ccc(OC)c(CNC(=O)NC2COc3ccc(OC)cc3C2)c1 (configuration not stated)	0.83	·
Cn1c(=O)c(=O)n(CC(=O)NC2CCCC2)c2ccccc21	0.41	·
Cc1c(C(=O)NCCCN2CCCC(C)C2)sc2nc3n(c(=O)c12)CCCCC3 (configuration not stated)	2.6	·
CCCCSc1nc2c(c(=O)[nH]1)C(c1cccc(C)c1)C(C(=O)OC)=C(C)N2 (configuration not stated)	-0.24	-1.16
CCOCCOC(=O)C1=C(C)NC2=C(C(=O)CC(c3cccs3)C2)C1c1ccccc1OCC (configuration not stated)	1.49	-0.51
O=C(CSc1nccn(-c2ccc(Cl)cc2)c1=O)c1ccc(F)cc1	0.74	·
O=C1NC(c2cccc(Br)c2)Nc2ccccc21 (configuration not stated)	1.79	-2.99
COCCOc1ccccc1NC(=O)c1ccc(Cl)cc1[N+](=O)[O-]	·	0.17
CC(Cn1c(=O)oc2ccccc21)OC(=O)Cc1cc(=O)n(C)c2ccccc12 (configuration not stated)	1.71	-1.98
CC(C)OCCCN[C@H]1CS(=O)(=O)C[C@@H]1S(=O)(=O)c1ccccc1	-1.82	-1.22
O=C(c1ccc(SCCN2CCCCC2)nc1)N1CCN(C2CCCCC2)CC1	2.39	·
CC1=C(c2ccccc2)S(=O)(=O)NC1=NCc1ccccc1C	1.41	-4.04
Cc1ccc(N2C(=O)c3oc4ccccc4c(=O)c3C2c2cccc(O)c2)nc1 (configuration not stated)	1.35	-0.3
Cc1c(NC(C)C)c(=O)n(-c2ccccc2)n1C	-0.96	·
Cc1cc(S(=O)(=O)N2CCN(S(C)(=O)=O)CC2)ccc1-n1cnnn1	0.75	-1.81
Cc1cc(NCc2ccccn2)n2nc(C(F)(F)F)c(-c3ccc(Cl)cc3)c2n1	2.07	-1.11
Additional structures:
SMILES	HIV TAR-Tat	CDC25B-CDK2 inh
O=S(=O)(NCc1ccccn1)c1ccc(-n2cccn2)cc1	-0.04	·
CCN(CC)CCn1c2ccccc2c2nc(C)sc21	·	-0.64
CCOc1nc(C)ccc1-c1noc(-c2ccccc2F)n1	0.86	-0.85
COc1ccc(-c2cc3ccccc3c(=O)o2)cc1	1.97	-1.12
COC(=O)CNC(=O)CCc1c(C)nc2c(c1C)c(=O)n(C)c(=O)n2C	-0.44	-3.25
O=C(Cn1c(=O)oc2ccccc21)N1CCCC1	-0.74	·
O=C(Cn1c(NCCO)nc2ccccc21)c1ccco1	0.38	-0.98
CCc1c(C)nc2ncnn2c1N1CCN(c2cccc(Cl)c2)CC1	0.85	-0.72
NC(=O)C1OC(c2ccccc2)OC1C(N)=O (configuration not stated)	·	-2.01
Fc1ccc(-c2n[nH]c(=S)n2Cc2ccccc2)cc1	·	-2.25
CCOCCOC(=O)C(C)Oc1ccc2c(=O)c(Oc3cccc(C)c3)coc2c1 (configuration not stated)	1.25	-1.49
c1ccc2[nH]c(SN3CCCCC3)nc2c1	2.1	-0.01
O=C(O)CCC(=O)N1CCSc2ncccc21	0.27	2.84
COc1ccc(N2C(=O)C3N=NN(Cc4ccc(Cl)cc4)C3C2=O)cc1Cl (configuration not stated)	-0.8	-0.32
Cc1ccc(OCCn2c(SCC(O)CO)nc3ccccc32)cc1 (configuration not stated)	0.06	-2.18
COc1ccc(OC)c(S(=O)(=O)Nc2ccc3oc(=O)c(NC(C)=O)cc3c2)c1	·	-1.53
Oc1ccc(-c2csc(Nc3ncccn3)n2)cc1O	·	-6.19
O=C(CSc1ccc(-c2ccncc2)nn1)Nc1ccccc1	1.22	·
Cc1ccc(C2NC(=O)c3n[nH]c(-c4ccco4)c32)cc1 (configuration not stated)	-3.48	-0.08
CCOC(=O)Nc1ccc(N2CCn3c(nc4cc(Cl)ccc43)C2)cc1OC	-7.87	-0.4
CCN(C(=O)NCc1noc2ccccc12)c1ccccc1F	1.49	·
CCOc1ccc(OCC)c(NS(=O)(=O)c2ccc3c(c2)CC(C)N3C(C)=O)c1 (configuration not stated)	1.07	·
Fc1ccc(C2CC(c3ccc(F)cc3F)Nc3nnnn32)cc1 (configuration not stated)	1.63	·
COC(=O)Cn1ncn2nc(-c3cccs3)cc2c1=O	·	-2.69
COCCN=C1NS(=O)(=O)C(c2ccc(Cl)cc2)=C1C	-0.46	-1.28
Cc1c(NC(=O)Nc2ccc(F)c(Cl)c2)c(=O)n(-c2ccccc2)n1C	2.79	-0.74
Cc1cn2c(=O)cc(COC(=O)c3ccc(Cl)cc3)nc2s1	2.03	·
O=C(NCCc1ccccc1)N1CCN2CCCCC2C1 (configuration not stated)	0.66	·
Oc1ccc(CN2CCCCC2)c2cccnc12	1.32	13.9*
NC(=O)C1CCN(C(=O)c2cn(-c3cccc(Cl)c3)nn2)CC1	1.26	·
Cc1cc(-c2ccc(C)c(S(=O)(=O)Nc3ncccc3C)c2)on1	1.24	·
CCc1nnc(NC(=O)Cn2ncc3c(=O)oc4ccc(C)cc4c32)s1	2.38	-0.45
CCC1Sc2ccc(S(=O)(=O)CCC(=O)N(CC)c3ccccc3)cc2NC1=O (configuration not stated)	-0.46	·
CSc1nn(CC(=O)Nc2ccc(Cl)cc2)c(N)c1S(=O)(=O)c1ccccc1	0.03	·
COc1ccc(CNc2nc(NCCCN3CCOCC3)nc3c2cnn3C)cc1	0.96	·
S=c1oc(-c2ccncc2)nn1CCc1ccncc1	0.45	-3.31
Cc1ccc(-n2cc(-c3cccs3)nc2SCc2n[nH]c(=S)n2Cc2ccccc2)cc1	·	-2.84
Cc1ccccc1CN1C(=O)C(O)(CC(=O)c2ccncc2)c2ccccc21 (configuration not stated)	·	-0.67
O=C(Nc1ccc(F)c(F)c1)C1CCC(=O)N1S(=O)(=O)c1ccccc1 (configuration not stated)	1.6	·
Fc1ccc(-c2noc3ncnc(NCc4cccs4)c23)cc1	2.14	·
CC(C)Oc1ccc(-c2cn3nc(C4CC4)sc3n2)cc1	1.12	-0.28
O=C(O)c1ccc(-n2c(=S)[nH]c3cc(Cl)ccc3c2=O)cc1O	·	-1.23

Bioassay records: PubChem BioAssay, Center for Chemical Genomics, University of Michigan
